High-throughput results (PubChem BioAssay)
PrP UTR inh = inhibition of PrP 5' UTR reporter expression; hit rate 0.35% among 340,000; cell-based PrP 5' UTR mRNA reporter, plate reader; inhibition, % (test concentration not listed);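 active = every replicate at 50% or more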;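 note: 0 = median of the neutral control wells; tested in H4 reporter cells; numbers are from one replicate; inactives centre near -14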
Sa RN4220 lethal = kills Staphylococcus aureus RN4220 | S. aureus RN4220 growth, OD600, 16 h | hit rate 0.33% among 330,000 | inhibition, % (concentration not given with the values) | AID 1259311;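 active = z-score of -3 or lower and OD600 up to 0.18 on both plates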;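 note: plate controls were untreated cells for no effect and reference antibiotic for full effect; stock transfer was 100 nL into about 80 µL; one replicate is shown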
Autofluor counter = counter-screen for toxin protease inhibitors: compound fluorescence. compound autofluorescence counterscreen, microsphere flow cytometry; active compounds read high. fluorescence intensity (test concentration not listed). hit rate 3.1% among 360,000. AID 624483;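 active = at least 3 SD above the mean of all compounds, about 16000 in these data; inconclusive = too few beads counted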;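 note: 100 nL of 1 mM stock went into each well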
Sa ugtP lethal = growth inhibition of S. aureus ugtP deletion strain. S. aureus RN4220 ugtP deletion, OD600 growth, 16 h; some inactives read as strong as hits. growth inhibition, % (concentration not given with the values). hit rate 0.54% among 330,000. AID 1259309;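 active = z-score under -3 and OD600 up to 0.15 on both plates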;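 note: plate controls were untreated wells for no effect and antibiotic for full effect; wells of about 80 µL received 100 nL stock; the first replicate is given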
BJeLR lethal = kills HRASV12-expressing BJeLR cells. hit rate 0.17% among 300,000. BJeLR (HRASV12) viability, CellTiter-Glo ATP luminescence, 48 h; reference of the scale not given here. inhibition, % (concentration not given with the values);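 active = replicate mean above 50%; inconclusive = above 50% but judged a plate artefact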;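 note: 50 nL library stock added to about 25 µL; numbers are from one replicate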
Mtb hypoxia inh = inhibitors of hypoxia-regulated fluorescent reporter in Mycobacterium tuberculosis; M. tuberculosis hypoxia-regulated fluorescent reporter, fluorescence; fluorescence inhibition, % (concentration not given with the values); hit rate 0.1% among 300,000; AID 1159583;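 active = 35 to 45% if threefold the growth effect, above 45% if 1.5-fold the growth effect; inactive = the rest, general growth blockers included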;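 note: wells of about 50 µL received 100 nL stock; 0% = vehicle wells and 100% = reference inhibitor wells; whole bacteria with a GFP reporter of the hypoxia response; strong numbers were not always called active; many hits fall short of the cut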
Mtb hypoxia inh growth = second read-out of Mtb hypoxia inh, no call of its own (marks repeat the call); growth inhibition, %; measured here: M. tuberculosis growth (absorbance);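 0% = vehicle and 100% = reference antibiotic; read after six days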
Active calls of the source: *; ? = inconclusive; . = not tested or not shown.

1: COc1cc(-c2nn3c(-c4cccnc4)nnc3s2)cc(OC)c1OC
2: CCCC1C2CN(C(C)=O)CC=C2C(C#N)=C(N)C1(C#N)C#N (configuration not stated)
3: COc1ccc(-c2nc3ccccc3n2Cc2ccc(C)cc2)cc1
4: Cc1ccc(S(=O)(=O)N(CCCN(C)C)Cc2ccc3c(c2)OCO3)cc1
5: COCC(=O)N1CCC(Oc2ccc(C(=O)NCc3csc(C(C)C)n3)cc2)CC1

entry no.,1,2,3,4,5
PrP UTR inh,-7,-12,-28,-19,-5
Sa RN4220 lethal,-0.5,-1.7,-3.1,3.5,2.5
Autofluor counter,11111,9007,2854,3830,5231
Sa ugtP lethal,1,0,52,3,4
BJeLR lethal,-5,-4,7,1,1
Mtb hypoxia inh,2,3,.,-5,16
Mtb hypoxia inh growth,5,8,.,-2,8

Copied from the list:
For Sa RN4220 lethal, COc1cc(-c2nn3c(-c4cccnc4)nnc3s2)cc(OC)c1OC has -0.5
For Sa RN4220 lethal, COc1ccc(-c2nc3ccccc3n2Cc2ccc(C)cc2)cc1 has -3.1

Next section:
6: CCCCCC(=O)NNC1=NCC(Cc2ccccc2)S1 (configuration not stated)
7: COc1ccc(C2CC(=O)C=C(C=CCc3ccccc3)C2)cc1 (configuration not stated)
8: CSc1nc(N)nc(SCC(=O)C(C)(C)C)c1C#N
9: CC(=O)c1cccc(NC(=O)COC(=O)Cn2cnc3ccccc32)c1
10: CC(=O)C1=C(c2ccccc2)OC(N)=C(C#N)C1c1ccccc1C (configuration not stated)

entry no.,6,7,8,9,10
PrP UTR inh,-2,.,-1,-29,-9
Sa RN4220 lethal,8.0,4.0,5.7,1.6,8.8
Autofluor counter,4811,.,2719,3003,1987
Sa ugtP lethal,5,12,-4,6,0
BJeLR lethal,-1,.,-12,.,-1
Mtb hypoxia inh,17,5,.,1,-5
Mtb hypoxia inh growth,5,1,.,-5,-1

11: N#CCS(=O)(=O)c1ccccc1
12: Cc1ccc(OCC(O)CNS(=O)(=O)c2ccccc2C(=O)N2CCCCC2)cc1 (configuration not stated)
13: COc1ccccc1C(=O)Nc1cc(C)ccc1NC(=O)c1ccco1
14: COc1ccc(OC)c(S(=O)(=O)Oc2ccc(N)c3ccccc23)c1
15: CCn1c(SCC(=O)O)nnc1-c1cccnc1

entry no.,11,12,13,14,15
PrP UTR inh,-21,-11,-5,-12,-17
Sa RN4220 lethal,3.7,5.1,3.2,6.6,-1.9
Autofluor counter,4046,?,4547,?,4586
Sa ugtP lethal,-2,25,-3,-7,-1
BJeLR lethal,-2,-1,2,0,-3
Mtb hypoxia inh,4,-5,-2,2,-3
Mtb hypoxia inh growth,-4,-7,0,16,1

16: CC(CC(=O)NCc1ccccc1Cl)=NNC(=O)c1ccccn1
17: COc1ccc2c(c1)C(c1ccc(N(CCCl)CCCl)cc1)=NCC2
18: CCc1ccc(CN2CCC(Oc3ccc(C(=O)NCc4ccccn4)cc3)CC2)o1
19: CC(=O)Nc1ccc(NC(=O)C2CCN(S(=O)(=O)c3cccc4nonc34)CC2)cc1
20: O=C1CN=C(c2ccc(Cl)cc2)c2oc3ccccc3c2N1

entry no.,16,17,18,19,20
PrP UTR inh,.,-7,-15,-23,.
Sa RN4220 lethal,1.9,-7.4,-6.4,3.7,0.8
Autofluor counter,.,4036,5700,7036,4381
Sa ugtP lethal,7,-24,-12,10,10
BJeLR lethal,.,.,2,4,6
Mtb hypoxia inh,-1,1,-9,11,6
Mtb hypoxia inh growth,-9,21,0,8,6

21: O=C(O)CSCc1nc2ccccc2[nH]1
22: Cc1cc(C)cc(OCC(=O)OCC(=O)NCCC2=CCCCC2)c1
23: O=C(NCc1ccco1)c1ccc(COc2ccc(Cl)cc2)cc1
24: CC(CC(=O)Nc1ccc2c(c1)OCO2)=NNC(=O)OC(C)(C)C
25: COc1cc(C=NNc2nc(N3CCCC3)nc(N3CCCC3)n2)ccc1OCc1ccccc1F

entry no.,21,22,23,24,25
PrP UTR inh,-20,11,-18,.,.
Sa RN4220 lethal,-1.6,4.0,-2.8,4.0,16
Autofluor counter,4287,1985,2599,.,.
Sa ugtP lethal,1,13,2,2,-9
BJeLR lethal,1,-1,5,.,.
Mtb hypoxia inh,-5,16,-5,13,-3
Mtb hypoxia inh growth,1,3,8,2,-2

26: O=C(C1=C(O)C(=O)N(CCN2CCOCC2)C1c1ccc([N+](=O)[O-])cc1)c1cc2ccccc2o1 (configuration not stated)
27: COCCn1c(-c2ccco2)csc1=Nc1cccnc1
28: Cc1ccc([N+](=O)[O-])cc1NC(=O)CCSc1ccc(Cl)cc1
29: O=C(CC1SC(=O)N(c2ccccc2)C1=O)Nc1cccc2ccccc12 (configuration not stated)
30: Cc1cc(C)cc(NC(=O)c2ccc(CNc3c(N4CCOCC4)c(=O)c3=O)cc2)c1

entry no.,26,27,28,29,30
PrP UTR inh,-15,-3,-18,-19,-59
Sa RN4220 lethal,-1.4,2.1,5.4,12,8.0
Autofluor counter,5453,10235,3266,6562,5801
Sa ugtP lethal,0,6,-20,4,-14
BJeLR lethal,8,-22,2,-9,-10
Mtb hypoxia inh,2,7,1,15,-10
Mtb hypoxia inh growth,-4,5,9,6,-4

31: O=C(NCCCc1ccccc1)C1CCN(c2nnc(-n3cccc3)s2)CC1
32: CNC(=O)/C(C#N)=C1\SC(Cc2ccc(F)cc2)C(=O)N1c1ccccc1C (configuration not stated)
33: Cc1ccc(C)c(CN2CCSCC2)c1
34: CCOC(=O)c1cc(-c2ccccc2C)nn1Cc1cc(CC)no1
35: COCCNC(=S)NN=C(C)CCc1ccc2c(c1)OCO2

entry no.,31,32,33,34,35
PrP UTR inh,-10,-14,-15,-12,.
Sa RN4220 lethal,-4.3,3.0,6.5,2.5,8.9
Autofluor counter,4657,3916,3505,4203,.
Sa ugtP lethal,18,-4,19,-1,6
BJeLR lethal,16,-2,8,.,.
Mtb hypoxia inh,6,-3,8,12,14
Mtb hypoxia inh growth,1,14,3,10,10

36: CCNC(=O)NC1(C(=O)Nc2ccc3c(c2)CCC3)CCCCC1
37: Cc1cc(C)c(C#N)c(SCc2cc3c(cc2Cl)OCO3)n1
38: CC(=NNC(=O)c1nnn(-c2nonc2N)c1CSc1ccccc1)c1ccc2c(c1)OCO2
39: CCN(CC)c1ccc(NC(=O)CSc2ccsc2[N+](=O)[O-])c(C)c1
40: CC(C)c1nc(CN2CCCCC2)cc(=O)[nH]1

entry no.,36,37,38,39,40
PrP UTR inh,-7,-12,.,-14,-20
Sa RN4220 lethal,3.3,-4.1,5.3,14,2.7
Autofluor counter,3496,7961,.,2104,4549
Sa ugtP lethal,5,-10,-4,-4,6
BJeLR lethal,-5,-11,.,-8,-17
Mtb hypoxia inh,.,4,-4,0,2
Mtb hypoxia inh growth,.,8,-8,5,4

41: O=c1c2c3c(sc2nc2n1N=C(c1cccs1)CS2)CCCC3
42: C=CCN1C(=O)/C(=C/c2ccc3c(c2)CCCN3CCC)C(=O)NC1=S
43: NC(=O)c1nnsc1-c1ccco1
44: Oc1ccccc1/C=N/N1CCCCC1
45: CCC1(CCC(C)C)SC(N)=NC1=O (configuration not stated)

entry no.,41,42,43,44,45
PrP UTR inh,-55,-15,-17,-44,-3
Sa RN4220 lethal,-2.3,-4.1,2.3,.,2.4
Autofluor counter,2548,11347,3483,3908,3655
Sa ugtP lethal,-2,2,1,.,-1
BJeLR lethal,5,13,.,1,.
Mtb hypoxia inh,6,-1,10,.,-6
Mtb hypoxia inh growth,8,4,9,.,21

46: COc1cccc(CC(=O)OCC(=O)NNC(=O)c2ccc(Br)cc2)c1
47: COc1ccc(N/N=C2/CCCCC2=O)cc1
48: CCCOP(=O)(c1ccc(N(C)C)cc1)C(Nc1ccccc1)c1ccc(C)cc1 (configuration not stated)
49: CC(=NNC(=O)Cn1ccc(C(F)(F)F)n1)c1ccc(N2CCOCC2)cc1
50: COC(=O)N/N=C/C1=CCC2CC1C2(C)C (configuration not stated)

entry no.,46,47,48,49,50
PrP UTR inh,-15,-36,-34,.,-29
Sa RN4220 lethal,1.4,.,8.3,2.2,.
Autofluor counter,3618,5454,3565,.,4448
Sa ugtP lethal,-3,.,-6,8,.
BJeLR lethal,.,-4,-2,.,5
Mtb hypoxia inh,-2,.,7,12,.
Mtb hypoxia inh growth,8,.,6,-4,.

51: O=C(O)CSCC(=O)Nc1ccc(C(F)(F)F)cc1
52: Cc1cc(NC(=O)CN2C(=O)CCSc3ccccc32)no1
53: Cc1cc2c(cc1S(=O)(=O)N1CCCCC1)OCC(=O)N2
54: CN(C)C(=O)N1CCCC(C(=O)NCc2ccc(F)cc2Cl)C1 (configuration not stated)
55: O=C(Nc1cccc(C(F)(F)F)c1)n1cc(-c2ccccn2)c(N2CCOCC2)n1

entry no.,51,52,53,54,55
PrP UTR inh,-19,-13,-25,-26,-19
Sa RN4220 lethal,8.7,6.1,2.5,1.6,-0.5
Autofluor counter,2643,3781,6563,6136,2430
Sa ugtP lethal,0,5,-5,1,-16
BJeLR lethal,-4,3,2,0,7
Mtb hypoxia inh,-3,4,-1,2,1
Mtb hypoxia inh growth,-4,1,-1,5,6

56: CCOc1ccccc1N(C)S(=O)(=O)c1ccc2c(c1)N(C(C)=O)CCO2
57: CC1=CN2C(=NC(=O)CC2(C)C(=O)N(CC(=O)NC2CCCC2)Cc2ccccc2)C=C1 (configuration not stated)
58: COC(=O)c1ccc2[nH]c(C3(O)CCCCC3)c(C)c2c1
59: O=C(Cn1cnc2ccccc2c1=O)NC1CCCc2ccccc21 (configuration not stated)
60: CC(C)CC(=O)Nc1ccc(Nc2ccccc2)cc1

entry no.,56,57,58,59,60
PrP UTR inh,-3,4,-22,-10,-15
Sa RN4220 lethal,5.6,2.3,-2.7,-8.4,-4.1
Autofluor counter,6229,5231,2997,4115,3805
Sa ugtP lethal,-2,4,-26,2,-10
BJeLR lethal,7,-1,.,-1,-6
Mtb hypoxia inh,2,0,9,.,-4
Mtb hypoxia inh growth,5,1,5,.,9

61: CCNc1nc(NC(C)C)nc(Nn2cnnc2)n1
62: O=C(CCc1ccccc1)Nc1ccccc1C(=O)N1CCOCC1
63: NC(=S)NC1CCS(=O)(=O)C1 (configuration not stated)
64: COc1cc2c(cc1OC)-c1c(OC)c(OC)cc3ccnc(c13)C2=O
65: CCCc1cc(=O)[nH]c(SCC(=O)N2CCN(c3ccccc3)CC2)n1
66: O=C(NC(=S)N1CCN(c2ccccn2)CC1)c1ccccc1
67: COc1ccc(NC(=O)CC2Oc3ccccc3NC2=O)c(OC)c1 (configuration not stated)
68: Cc1ccc(S(=O)(=O)NCCc2ccc(S(N)(=O)=O)cc2)cc1

entry no.,61,62,63,64,65,66,67,68
PrP UTR inh,.,-30,1,15,-20,-18,.,-26
Sa RN4220 lethal,7.3,2.3,2.2,.,0.2,0.9,3.2,1.4
Autofluor counter,11101,3542,4334,4013,12797,2093,3280,10135
Sa ugtP lethal,-4,13,-10,.,13,-2,10,3
BJeLR lethal,3,.,-5,5,-6,-11,5,-6
Mtb hypoxia inh,14,-1,-10,.,1,5,2,15
Mtb hypoxia inh growth,5,-5,-4,.,3,13,6,12

Seven compounds picked at random from the list so far:
65: CCCc1cc(=O)[nH]c(SCC(=O)N2CCN(c3ccccc3)CC2)n1
67: COc1ccc(NC(=O)CC2Oc3ccccc3NC2=O)c(OC)c1 (configuration not stated)
63: NC(=S)NC1CCS(=O)(=O)C1 (configuration not stated)
61: CCNc1nc(NC(C)C)nc(Nn2cnnc2)n1
64: COc1cc2c(cc1OC)-c1c(OC)c(OC)cc3ccnc(c13)C2=O
66: O=C(NC(=S)N1CCN(c2ccccn2)CC1)c1ccccc1
62: O=C(CCc1ccccc1)Nc1ccccc1C(=O)N1CCOCC1

entry no.,65,67,63,61,64,66,62
PrP UTR inh,-20,.,1,.,15,-18,-30
Sa RN4220 lethal,0.2,3.2,2.2,7.3,.,0.9,2.3
Autofluor counter,12797,3280,4334,11101,4013,2093,3542
Sa ugtP lethal,13,10,-10,-4,.,-2,13
BJeLR lethal,-6,5,-5,3,5,-11,.
Mtb hypoxia inh,1,2,-10,14,.,5,-1
Mtb hypoxia inh growth,3,6,-4,5,.,13,-5
